From PubChem BioAssay
NPYLR7 agonist – agonists of mosquito NPYLR7 receptor, primary screen, cell-based, Aedes aegypti, calcium fluorescence, mosquito biting behavior; Aedes aegypti neuropeptide Y-like receptor 7 (NPYLR7); 0.15% of 270,000 active; activation, % at 10 µM; HEK293T NPYLR7/Galpha15, GCaMP6s calcium fluorescence; AID 1259423, 2018; in the data active = activation above about 40%;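 also: 0% = vehicle and 100% = reference agonist at the receptor; some compounds past the cut are filed as inactive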
NPYLR7 agonist max-min – also measured in NPYLR7 agonist; calls as there; activation, %; measured here: Max-Min RFU normalised activation; some inactives read as strong as hits;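 span of the calcium signal over five minutes; 0% = vehicle and 100% = native peptide agonist; compound fluorescence can raise it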
Active calls of the source: *; & = joins results of further samples. The list is partial. The share of hits here may be higher or lower than overall.

Every second line gives: NPYLR7 agonist, NPYLR7 agonist max-min
> c1ccc2c(CC3=NCCN3)cccc2c1
  1&-4&-1&-5, -4&-7&-9&-8
> N[C@@H]1CN(c2c(F)cc3c(=O)c(C(=O)O)cn([C@@H]4C[C@@H]4F)c3c2Cl)CC12CC2
  -4, -13
> O=c1cc[nH]c(=O)[nH]1
  -1, -3
> C[C@H]1COc2c(N3CCN(C)CC3)c(F)cc3c(=O)c(C(=O)O)cn1c23
  -14&-13, -15&-23
> C/C=C/C=N\NC(=O)c1ccncc1
  -20, -27
> CCCC(=O)O
  -8, -14
> Nc1ccc(C(=O)Nc2ccccc2N)cc1
  -14, -20
> CCCOC(=O)c1ccccc1
  -24, -31
> CC(C)(C)c1cnc(CSc2cnc(NC(=O)C3CCNCC3)s2)o1
  60*, 64*
> CCCCCCC/C=C\CCCCCCCCC(=O)O
  3, -25
> CC(=O)N1N=C(c2ccccc2O)CC1c1ccco1 (stereo unspecified)
  -5, -10
> Cc1onc(-c2ccccc2Cl)c1C(=O)N[C@@H]1C(=O)N2[C@@H]1SC(C)(C)[C@@H]2C(=O)O
  -8&11&1, -11&8&-4
> CCN(CC)CCCCNc1ncc2cc(-c3c(Cl)cccc3Cl)c(NC(=O)NC(C)(C)C)nc2n1
  -7, -12
> CC(=O)[C@H]1CC[C@H]2[C@@H]3C[C@H](C)C4=CC(=O)CC[C@]4(C)[C@H]3[C@@H](O)C[C@]12C
  -10&-1, -10&-5
> CCNC(=O)/C=C/c1cccc(Br)c1
  -14, -30

Whole records, quoted from the list.
`CC(=O)[C@H]1CC[C@H]2[C@@H]3C[C@H](C)C4=CC(=O)CC[C@]4(C)[C@H]3[C@@H](O)C[C@]12C` is listed as NPYLR7 agonist: -10&-1; NPYLR7 agonist max-min: -10&-5
`CCN(CC)CCCCNc1ncc2cc(-c3c(Cl)cccc3Cl)c(NC(=O)NC(C)(C)C)nc2n1` is listed as NPYLR7 agonist: -7; NPYLR7 agonist max-min: -12

Continuation.
Every second line gives: NPYLR7 agonist, NPYLR7 agonist max-min
> Cc1ccc(Cl)cc1N(CC(=O)Nc1c(F)cccc1F)S(C)(=O)=O
  0, -6
> COc1ccc(C(O)=CC(=O)c2ccc(C(C)(C)C)cc2)cc1
  -23, -28
> C[C@]12CC[C@H]3[C@@H](CCC4=CC(=O)CC[C@@]43C)[C@@H]1CC[C@@H]2C(=O)CO
  -2, -3
> CC(Oc1c(Cl)cccc1Cl)C1=NCCN1 (stereo unspecified)
  -4&-2, 1&-3
> Nc1cc(-c2ccncc2)c[nH]c1=O
  -3&4, -7&5
> CC(C)Cc1ccc([C@H](C)C(=O)O)cc1
  0&-3, -13&-5
> CCC(=O)O[C@]1(C(=O)SCF)[C@H](C)CC2C3CC(F)C4=CC(=O)C=C[C@]4(C)C3(F)[C@@H](O)C[C@@]21C (stereo partly specified)
  7, 12
> O=C(O)CN1C(=O)c2cccc3cccc(c23)C1=O
  -5, -9
> O=C(O)[C@@H]1[C@H]2C[C@H]3c4[nH]c5ccccc5c4CCN3C[C@@H]2CC[C@@H]1O
  3, 2
> COc1cc(Nc2c(C#N)cnc3cc(OCCCN4CCN(C)CC4)c(OC)cc23)c(Cl)cc1Cl
  -5, -16
> COc1nc(C)nc(Cl)c1NC1=NCCN1
  13&-10&5, 1&-14&-49
> NC(=O)n1c(O)c(C(=O)c2cccs2)c2cc(Cl)ccc21
  -3, -10
> O=C1NCC2(CCN(CCc3ccccc3)CC2)O1
  -2&-2&2, -9&-20&-3
> COc1cc2nc(N3CCN(C(=O)C4COc5ccccc5O4)CC3)nc(N)c2cc1OC (stereo unspecified)
  -3&-7&2&-6, -9&-10&0&-5
> CCCOc1ccccc1-c1nc2n[nH]nc2c(=O)[nH]1
  -10&-5&2, -16&-10&-27

Two records picked at random from the list so far, as already listed:
Every second line gives: NPYLR7 agonist, NPYLR7 agonist max-min
> O=C1NCC2(CCN(CCc3ccccc3)CC2)O1
  -2&-2&2, -9&-20&-3
> COc1ccc(C(O)=CC(=O)c2ccc(C(C)(C)C)cc2)cc1
  -23, -28

(list continues)
Every second line gives: NPYLR7 agonist, NPYLR7 agonist max-min
> CC[C@]1(O)CC2CN(CCc3c([nH]c4ccccc34)[C@@](C(=O)OC)(c3cc4c(cc3OC)N(C)[C@H]3[C@@](O)(C(=O)OC)[C@H](OC(C)=O)[C@]5(CC)C=CCN6CC[C@]43[C@@H]65)C2)C1 (stereo partly specified)
  -16&-11, -11&-16
> NS(=O)(=O)c1cc2c(cc1C(F)(F)F)NC(Cc1ccccc1)NS2(=O)=O (stereo unspecified)
  16&-4&0, 4&-9&-1
> O=C(CCCl)NCCc1ccccc1
  -11, -24
> O=c1cc(-c2ccc(O)cc2)oc2cc(O)ccc12
  -6, -15
> O=C(O)COC(=O)Cc1ccccc1Nc1c(Cl)cccc1Cl
  -3, -9
> CC(=O)Nc1nc(C)c(-c2ccc(Cl)c(S(=O)(=O)NCCO)c2)s1
  -18, -22
> COc1ccc(-c2cc(=O)c3c(O)cc(O[C@@H]4O[C@H](CO[C@H]5O[C@H](C)[C@@H](O)[C@H](O)[C@@H]5O)[C@@H](O)[C@H](O)[C@H]4O)cc3o2)cc1O
  -4, -9
> CCOC(=O)C1(CCOc2ccccc2)CCN(Cc2ccc(O)c(Cl)c2)CC1
  -8, -8
> CCOc1ccn(-c2ccc(F)cc2)c(=O)c1C(=O)Nc1ccc(Oc2ccnc(N)c2Cl)c(F)c1
  -1, -9
> COc1cc(N2CCC(N3CCN(C)CC3)CC2)ccc1Nc1ncc(Cl)c(Nc2ccccc2S(=O)(=O)C(C)C)n1
  -8, -15
> Cc1nnc(NS(=O)(=O)c2ccc(N)cc2)s1
  -2&-4, -3&-7
> CCN(CC)CCOc1ccccc1C(=O)CCc1ccccc1
  -10, -21
> C=CC1=C(C(=O)O)N2C(=O)[C@@H](NC(=O)C(=NO)c3csc(N)n3)[C@H]2SC1
  -3, -5
> CCC[C@H](N[C@@H](C)C(=O)N1[C@H](C(=O)O)C[C@@H]2CCCC[C@@H]21)C(=O)OCC
  -2&6, -11&-8
> Nc1nccs1
  0, -9
> NC(=N/N=C\c1ccc(Cl)cc1)N/N=C\c1ccc(Cl)cc1
  -28, -38
> CN1CCc2c(c3ccccc3n2Cc2ccc(C(=O)NO)cc2)C1
  15&15, -1&1
> C[C@]12CC3CC(N)(C1)C[C@@](C)(C3)C2
  -7, -15
> CCC1C(=O)OCC1Cc1cncn1C (stereo unspecified)
  -7&-5&-7&1&2, -15&-7&-9&-23&-24
> COc1cc2c(Oc3ccc4[nH]c(C)cc4c3F)ncnc2cc1OCCCN1CCCC1
  -7, -16
> O=C1N(c2ccccc2)c2ccccc2C1(Cc1ccncc1)Cc1ccncc1
  -3&1, -7&-13
> Nc1nc(CC(=O)Nc2ccc(CCNC[C@H](O)c3ccccc3)cc2)cs1
  -3, -10
> COc1cccc(CCc2ccccc2OCC(CN(C)C)OC(=O)CCC(=O)O)c1 (stereo unspecified)
  -23, -35
> COc1ccccc1OCC(O)COC(N)=O (stereo unspecified)
  -8&-3&0, -13&-7&-6
> CCN1C[C@H](C)n2c(c(O)c3c(=O)n(Cc4ccc(F)c(Cl)c4)nc(C(=O)NC)c32)C1=O
  -6, -8
> Cc1cc2c(s1)Nc1ccccc1N=C2N1CCN(C)CC1
  -9&7, -16&1
> CC(C)n1cnc2c(NCCc3ccc(O)cc3)nc(-c3csc4ccccc34)nc21
  0, -8
> O=C1c2ccc(Nc3ccc(F)cc3F)cc2CCc2ccc(OC[C@H](O)CO)cc21
  -5, -10
> COc1cc(OC)c2c(=O)[nH]c(-c3cc(C)c(OCCO)c(C)c3)nc2c1
  -8, -9
> O=S(=O)(O)c1ccc2nc(-c3ccccc3)[nH]c2c1
  -21&-26, -28&-33
> CN(C)CCCN1c2ccccc2Sc2ccccc21
  -4&-6&0, -10&-7&47
> C=CC(C)(O)CC/C=C(\C)CCC=C(C)C (stereo unspecified)
  -9, -11
> N=C(N=C(N)N)N1CCOCC1
  -4&-3, -8&-3
> CC(=O)O[C@]1(C(C)=O)CC[C@H]2[C@@H]3C=C(Cl)C4=CC(=O)[C@@H]5C[C@@H]5[C@]4(C)[C@H]3CC[C@@]21C
  5, -2
> Cc1coc2c1C(=O)C(=O)c1c-2ccc2c1CCCC2(C)C
  -3&3, -10&3
> OC1(c2ccc(Cl)c(C(F)(F)F)c2)CCN(CCCC(c2ccc(F)cc2)c2ccc(F)cc2)CC1
  -1, 5
> OCCn1cc(-c2ccc3c(c2)CC/C3=N/O)c(-c2ccncc2)n1
  -7, -10
> CC(C)Cc1ccc(C(C)C(=O)O)cc1 (stereo unspecified)
  -2&-8&2, -11&-12&-13
> CC1(C)OC(=O)C(OCC2CC2)=C1c1ccc(S(C)(=O)=O)cc1
  -4, -12
> CC1(O)CC(c2nc(-c3ccc4ccc(-c5ccccc5)nc4c3)c3c(N)nccn23)C1 (stereo unspecified)
  -8, -14
> COc1ccc(/C=N\NC(=O)c2ccncc2)cc1OC
  -20, -29
> CN(C)C/C=C(/c1ccc(Br)cc1)c1cccnc1
  3, -8
> CC(=O)NCCCCCC(=O)O
  -12, -16
> COC(=O)C1=CO[C@@H](O[C@@H]2O[C@H](CO)[C@@H](O)[C@H](O)[C@H]2O)[C@@H]2[C@@H](C)[C@@H](O)C[C@H]12
  -6, -8
> CN1CCC(=C2c3ccccc3CCc3sccc32)CC1
  3&-13, -6&-17

Look-ups from the results shown.
`OCCn1cc(-c2ccc3c(c2)CC/C3=N/O)c(-c2ccncc2)n1` | NPYLR7 agonist = -7
`CC(=O)O[C@]1(C(C)=O)CC[C@H]2[C@@H]3C=C(Cl)C4=CC(=O)[C@@H]5C[C@@H]5[C@]4(C)[C@H]3CC[C@@]21C` | NPYLR7 agonist max-min = -2

Going on with the list:
Every second line gives: NPYLR7 agonist, NPYLR7 agonist max-min
> CC[C@H](CO)Nc1nc(Nc2cccc(-c3ccccn3)c2)c2ncn(C(C)C)c2n1
  -8, -15
> COc1cc2ncnc(Nc3ccc(F)c(Cl)c3)c2cc1NC(=O)/C=C/CN1CCCCC1
  -4, -7
> c1ccc(Cc2nc(-c3ccncc3)n[nH]2)cc1
  15, 8
> COc1cc2c(cc1-c1c(C)noc1C)ncc1[nH]c(=O)n([C@H](C)c3ccccn3)c12
  -6, -12
> COC(=O)c1cccnc1
  -28, -30
> COc1c(O)cc2c(c1O)C1OC(CO)C(O)C(O)C1OC2=O (stereo unspecified)
  -1, -10
> Nc1nc(Nc2ccc(S(N)(=O)=O)cc2)nn1C(=O)c1c(F)cccc1F
  -9, -10
> Cc1nc(NC(=O)N2CCC[C@H]2C(N)=O)sc1-c1ccnc(C(C)(C)C(F)(F)F)c1
  2, -2
> O=C(c1cc(Cc2n[nH]c(=O)c3ccccc23)ccc1F)N1CCN(C(=O)C2CC2)CC1
  -5, -8
> O=C(Cn1ccnc1[N+](=O)[O-])NCCO
  -10&0, -13&-3
> CC(C)CC(=O)Nc1n[nH]c2c1CN(C(=O)C1CCN(C)CC1)C2(C)C
  -10, -13
> O=C(O)C(O)C(O)C(O)C(O)C(=O)O (stereo unspecified)
  -5, -3
> CCCn1cc(C(=O)NCCC(C)C)c2nn(-c3ccccc3)c(=O)c-2c1
  3, 3

Among those listed so far, these have a thiophene ring, fused or not.
Every second line gives: NPYLR7 agonist, NPYLR7 agonist max-min
> NC(=O)n1c(O)c(C(=O)c2cccs2)c2cc(Cl)ccc21
  -3, -10
> Cc1cc2c(s1)Nc1ccccc1N=C2N1CCN(C)CC1
  -9&7, -16&1
> CC(C)n1cnc2c(NCCc3ccc(O)cc3)nc(-c3csc4ccccc34)nc21
  0, -8
> CN1CCC(=C2c3ccccc3CCc3sccc32)CC1
  3&-13, -6&-17
